TRPML1 inh – qHTS for Inhibitors of the Human Mucolipin Transient Receptor Potential 1 (TRPML1) | Mucolipin-1 (Homo sapiens), Q9GZU1 | TRPML1-inducible cells, Ca2+ dye fluorescence, FDSS; stronger effect = lower value; inhibition of EC80 agonist-evoked calcium signal | activity change, negative = inhibition, % (test concentration not listed) | actives 0.02% (n = 390,000) | AID 624415, 2012; in the data active means activity change below about -50%; inconclusive means about -30% to -50%; inactive means above about -30%;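 further: stimulus is agonist 54-4 at its EC80 concentration; on the % scale 0 is the no-effect control and ±100 the full control effect; compound concentration not given in the record; the text of the record puts the active cut at -80%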
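Calcium fluorescence in TRPML1-DL cells induced overnight with Tet: a 110 s read after compound pin addition, then a 110 s antagonist read after challenge with 54-4 at 4 uM final (EC80).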
ClpP mod – qHTS Assay for Activators of ClpP. ATP-dependent Clp protease proteolytic subunit (Bacillus subtilis (strain 168)), P80244. purified B. subtilis ClpP, FRET peptide cleavage, 20 min. Potency, µM (series often up to 57.5 µM), without a hit: at the highest dose activity change, negative = active. actives 1.9% (n = 340,000). AID 651965, 2013; active = well fitted falling curve with a large enough effect; inconclusive = small, poorly fitted or top-dose-only effect; inactive = no such curve, though single readings can be large or run the other way; further: potency means the concentration at half of the fitted maximal effect; the source files actives as falling curves though it sought activators and does not explain the sign; nearly all actives have a fitted effect of over 65% in size; many hits overshoot -100%
Target sequence (P80244 whole entry, looked up): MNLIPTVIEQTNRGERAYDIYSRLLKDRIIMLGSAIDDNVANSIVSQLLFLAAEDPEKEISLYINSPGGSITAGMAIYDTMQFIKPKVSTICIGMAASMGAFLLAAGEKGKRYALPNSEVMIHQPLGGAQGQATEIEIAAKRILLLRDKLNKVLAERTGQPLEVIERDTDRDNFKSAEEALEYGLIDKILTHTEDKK
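ClpP 10 microg/mL final, pH 8 Tris/KCl buffer with BSA, glycerol, Tween-20; compound pinned in; FRET-FV substrate; RT 20 min; Ex320/Em430; ΔFRET vs ADEP 5.8 microM, DMSO, no enzyme.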
Sfp inh – qHTS Assay for Inhibitors of Bacillus subtilis Sfp phosphopantetheinyl transferase (PPTase) | AID 1490, 2009 | Biochemical Sfp PPTase activity, qHTS | actives 3.5% (n = 310,000) | Potency, µM, inactives show max response, negative = inhibition, hits mostly inhibitors; active means well fitted inhibition curve with a large enough effect; inconclusive means small, poorly fitted or top-dose-only effect, or another doubt; inactive means no such curve, though single readings can be large or run the other way;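 further: the enzyme is Sfp with the accession as filed and its product quenches rhodamine fluorescence; potency means the concentration at half of the fitted maximal effect; 0% = enzyme reaction without inhibitor and -100% = no enzyme wells; top concentration of the series not given in the record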
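Buffer: 50 mM Hepes-Na pH 7.6, 10 mM MgCl2, 0.01% Nonidet P-40, 0.01% BSA. Enzyme 15 nM, pre-exposed to compound 15 min; substrates then added and fluorescence change tracked over 30 min.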
PINK1 expr mod – A Quantitative High throughput Screen to Identify Chemical Modulators of PINK1 Expression | PINK1 immunofluorescence, high-content cytometry, 24 h | Potency, µM (doses to about 76.6 µM), inactives show at the highest dose activation (PINK1 increase), hits mostly activators | actives 0.2% (n = 410,000); active = well fitted activation curve with a large enough effect; inconclusive = small, poorly fitted or top-dose-only effect; inactive = flat fitted curve, though single readings scatter; cell line not stated here;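 further: potency means the concentration at half of the fitted maximal effect; % of control where 0% means no effect; nearly all actives have a fitted effect of over 65% in size; a mitochondrial uncoupler was the plate control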
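Stable cell line, 250 cells/well, 12 h attachment; compounds pinned at 5 concentrations, 24 h; CCCP control. Fixed with nuclear dye, primary antibodies 12 h at 10 degrees C, secondary plus cell stain; laser-scanning cytometer read.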
Menin MLL FP FL – qHTS Assay for Inhibitors Targeting the Menin-MLL Interaction in MLL Related Leukemias: Competition With Fluorescein Labeled MLL-derived Peptide. Fluorescence polarization, fluorescein-MLL peptide displacement from menin. FP activity change, % at 61.4 µM. 290,000 tested, under 10 active. AID 1766, 2009; inconclusive = falling polarisation curve, or a change in total fluorescence; inactive = total fluorescence flat and polarisation flat or rising; no compound was filed as active; the % refers to the polarisation; negative = inhibition;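 further: % of control where 0% means no effect; inhibitors lower the polarisation; unlabelled MLL peptide was the positive control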
TRPML1 agonist – qHTS for Agonists of the Human Mucolipin Transient Receptor Potential 1 (TRPML1) | Mucolipin-1 (Homo sapiens), Q9GZU1 | TRPML1-expressing cells, Ca2+ dye fluorescence, FDSS; host cell line not named in the record; reference of the full effect not given here | activation, % (test concentration not listed) | actives 0.12% (n = 410,000); in the data active = activation above about 50%; inconclusive = about 30% to 50%; inactive = below about 30%; further: 0% is about no effect; the text of the record puts the active cut at 80%
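Tetracycline-induced TRPML1-DL cells are seeded and incubated overnight before loading with a no-wash Ca2+ dye and quencher. Agonist activity is taken from the 110 s fluorescence read following compound pin-transfer on an FDSS, before EC80 54-4 challenge.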
TRPV1 PAM – HTS Assay for Compounds that Act as Potentiators of the Vanilloid Receptor 1; Transient receptor potential cation channel subfamily V member 1 (Homo sapiens), Q8NER1; TRPV1-expressing cells, Fluo-8 calcium influx, capsaicin EC20 potentiation; host cell line not named in the record; control for the full effect not named in the record; potentiation, % at 8.33 µM; actives 0.02% (n = 320,000); active means potentiation above 80%; inconclusive means 30% to 80%; inactive means below 30%; further: 0% is about no effect
Target sequence (Q8NER1 whole entry, looked up): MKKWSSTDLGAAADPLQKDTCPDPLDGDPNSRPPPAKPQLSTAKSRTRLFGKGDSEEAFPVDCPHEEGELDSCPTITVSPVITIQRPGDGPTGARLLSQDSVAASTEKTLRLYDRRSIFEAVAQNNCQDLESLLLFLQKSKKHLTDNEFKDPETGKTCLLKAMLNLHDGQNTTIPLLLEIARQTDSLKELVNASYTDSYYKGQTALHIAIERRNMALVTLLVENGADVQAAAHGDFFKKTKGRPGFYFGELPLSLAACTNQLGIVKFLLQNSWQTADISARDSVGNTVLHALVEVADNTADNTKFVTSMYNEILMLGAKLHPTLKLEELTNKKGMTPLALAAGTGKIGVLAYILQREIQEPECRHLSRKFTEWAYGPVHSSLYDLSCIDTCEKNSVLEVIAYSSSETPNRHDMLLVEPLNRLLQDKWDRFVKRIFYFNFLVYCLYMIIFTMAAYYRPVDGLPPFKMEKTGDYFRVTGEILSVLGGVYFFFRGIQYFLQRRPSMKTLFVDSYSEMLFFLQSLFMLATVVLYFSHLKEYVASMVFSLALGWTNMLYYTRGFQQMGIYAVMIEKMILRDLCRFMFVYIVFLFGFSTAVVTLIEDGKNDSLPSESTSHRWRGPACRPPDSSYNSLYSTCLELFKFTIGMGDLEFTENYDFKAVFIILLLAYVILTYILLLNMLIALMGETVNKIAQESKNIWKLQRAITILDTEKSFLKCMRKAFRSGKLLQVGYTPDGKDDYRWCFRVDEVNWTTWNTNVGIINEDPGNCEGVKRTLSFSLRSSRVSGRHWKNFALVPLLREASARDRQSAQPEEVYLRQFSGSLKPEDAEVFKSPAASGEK
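Cells expressing TRPV1 were dye-loaded with Fluo-8 and read kinetically: 10 s baseline, 3 min after compound (agonist portion), then 2 min after EC20 capsaicin (allosteric enhancer portion). Calcium-bound dye fluorescence at 480/520 nm.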
* hit, by the source's call; ? = inconclusive; . = not tested or not shown; & = joins results of further samples; [ ] = dose if it differs, or a comment.

SMILES	TRPML1 inh	ClpP mod	Sfp inh	PINK1 expr mod	Menin MLL FP FL	TRPML1 agonist	TRPV1 PAM
O=C(NCCc1cn[nH]c1)C1CCC(=O)N(CCc2cccc(F)c2)C1 (stereo not given)	5	-3.6%	5%	2.0%	.	0.3	-1
CC(=O)Nc1ccc(NC(=O)Nc2ccccc2)cc1	-25	0.7%	-1%	-0.5%	1.3	1.3	1
CCCCN(CCCC)CCNC(=O)c1cn(C)c2ccc(S(=O)(=O)N(C)C3CCCCC3)cc2c1=O	22	1.0%	1%	-0.4%	0.2	2.8	-5
O=[N+]([O-])c1ccc(-c2ccc(/C=N/Nc3nc(N4CCCCC4)nc(N4CCCCC4)n3)o2)cc1	-13	.	12%	?	?	9.4	7
C/C(NC(=O)c1ccccc1F)=C1\C(=O)C[C@@H]2[C@H]1C2(C)C	-1	-0.7%	2%	0.7%	3.5	1.6	-9
O=C(Nc1ccccc1)ON=C1c2ccccc2-c2ccccc21	-6	1.8%	-1%	-0.5%	-0.7	-0.8	10
N#CCCN(Cc1cccs1)C(=O)Nc1ccccc1	26	0.1%	12%	0.8%	13	-0.6	-9
CO/N=C/c1ccc(N2CCOCC2)c([N+](=O)[O-])c1	-2	-1.0%	10%	-0.8%	-1.3	-0.2	2
N#CCCN(C(=O)COC(=O)c1ccc2c(c1)OCCO2)c1ccccc1	-15	.	.	2.2%	.	-0.6	.
O=C1C=C(NNC(=O)c2ccccc2Br)CCC1	-5	.	2%	-0.9%	0.6	-0.1	0
CCS(=O)(=O)c1ccc2oc(=O)c(/C=C(\O)c3ccc(Cl)cc3)nc2c1	-7	.	-5%	3.5%	?	-0.1	-10
CC(C)CC(=O)N1CCN(Cc2ccc(C(F)(F)F)cc2)CC1	.	-0.1%	?	0.7%	3.2	.	9
CC1=C(C(=O)N(C(C)C)C(C)C)CC(CC(=O)NC(c2ccccc2)c2ccccc2)C(=O)N1CCCN1CCCC1=O (stereo not given)	.	2.5%	.	-0.2%	.	-0.4	.
N=c1c2c(ncn1CCN1CCOCC1)Oc1cc(O)ccc1C2c1ccccc1 (stereo not given)	0	.	25%	-0.4%	-5.9	0.6	-32
Cc1ccc(-c2cc(NC=O)c3ncc(-c4cnn(C)c4)n3c2)cc1	.	-16%	.	4.6%	.	-0.7	.
CN(CCC#N)C(=O)CC(Cc1ccccc1)C1CCOC(C)(C)C1 (stereo not given)	.	-2.1%	-5%	0.0%	-2.9	.	-1
CCc1noc(C)c1C(=O)OC(C)C(=O)Nc1ccccc1OC (stereo not given)	5	.	.	2.1%	.	0.4	?
O=C(O)Cc1c(C(=O)O)nnn1-c1cccc(C(F)(F)F)c1	15	.	-11%	5.5%	0.7	-0.7	14
Cc1ccc(CNCC(O)c2ccccc2)s1 (stereo not given)	0	.	-1%	-0.9%	-2.4	-0.8	-9
CCC(=O)Oc1ccc(C(=O)Nc2cccc(NC(=O)c3ccco3)c2)cc1	1	.	10%	2.2%	0.8	-0.3	2
O=C(Nc1cccc2nsnc12)c1ccc(-c2ccc(Br)cc2)o1	-23	-2.8%	40µM*	?	?	-0.3	0
CC(c1ccccc1)c1nnc(NC(=O)c2ccc3c(c2)OCO3)s1 (stereo not given)	12	?	4%	13%	0.4	-0.9	-14
Cc1[nH]c(=S)c(C#N)c2c1CCCC2	28	.	1%	2.9%	1.9	-0.3	4
CC(=O)N1CCc2cc(S(=O)(=O)NC(Cc3ccccc3)C(=O)NCCN3CCCCC3C)ccc21 (stereo not given)	-26	1.8%	23%	-1.7%	-0.6	0.8	-1
Cc1ncc(CO)c2c1Oc1nc(-c3ccccc3)nc(SCC(=O)N3CCCCC3)c1C2	10&-10	-1.6%&-0.7%	-15%	-1.4%&4.1%	.	-0.5&0.4	17
CC(C)(C)C1CCC(=NNC(=O)CC(=O)NCc2ccccc2)CC1 (stereo not given)	-13	-0.9%	-5%	10%	1.5	0.3	5
CC(=O)Nc1ccccc1OC(C)C(=O)N1CC(C)CC(C)C1 (stereo not given)	-21	.	-10%	-1.2%	4.3	-0.5	20
O=C(CN(Cc1ccco1)Cc1cccs1)N1CCN(S(=O)(=O)c2cccc(F)c2)CC1	11	-0.7%	.	-0.6%	.	2.6	-18
COc1ccc(C(=O)N2CCN(c3ccccc3Cl)CC2)cc1S(=O)(=O)NC1CC1	11	0.6%	.	3.1%	.	0.0	8
Cn1c(=O)c2[nH]c(C3CC3)nc2n(C)c1=O	-12	?	.	-4.6%	.	0.1	.

Laid out differently: 2 of the compounds above.
| molecule | TRPML1 inh | ClpP mod | Sfp inh | PINK1 expr mod | Menin MLL FP FL | TRPML1 agonist | TRPV1 PAM |
| --- | --- | --- | --- | --- | --- | --- | --- |
| CC(=O)Nc1ccc(NC(=O)Nc2ccccc2)cc1 | -25 | 0.7% | -1% | -0.5% | 1.3 | 1.3 | 1 |
| O=C(Nc1cccc2nsnc12)c1ccc(-c2ccc(Br)cc2)o1 | -23 | -2.8% | 40µM* | ? | ? | -0.3 | 0 |

Remaining list, next part.
SMILES	TRPML1 inh	ClpP mod	Sfp inh	PINK1 expr mod	Menin MLL FP FL	TRPML1 agonist	TRPV1 PAM
COc1cccc(NC(=O)C2C3C=CC4(O3)C2C(=O)N(C2CC2)C4C(=O)NC2CCCCC2C)c1 (stereo not given)	17	0.1%	-12%	0.2%	0.2	-1.0	?
Cc1ccc(S(=O)(=O)NC2CCSC2=O)cc1C (stereo not given)	-6	0.9%	.	0.8%	.	-0.5	7
CCOc1cccc2cc(C(=O)NCc3ccccc3)c(=N)oc12	0	-2.3%	-2%	6.4%	12	3.9	-3
COc1ccc(C2CC(=O)N(Cc3ccc(F)cc3)c3ccccc3S2)cc1 (stereo not given)	48	-0.5%	.	2.2%	.	5.7	.
OC1(c2ccccc2)C/C(=N\n2cnnc2)C=C1c1ccccc1 (stereo not given)	-3	1.1%	9%	.	1.1	0.0	-11
CCOc1ccccc1C(=O)NCC(=O)OCCCOC(=O)CNC(=O)c1ccccc1OCC	21	-4.7%	.	1.9%	.	1.7	11
CN(Cc1nc(-c2cccs2)no1)CC1COCCO1 (stereo not given)	-20	-1.0%	15%	-0.1%	-1.7	0.9	-6
N#CCCCSc1nnc(-c2ccc(Cl)cc2)n1-c1ccccc1	-11	-2.3%	5%	-4.0%[38.3 µM]	-2.9	-0.7	-10
CCC1CCCCN1C(=O)COc1ccc2c(c1)OCO2 (stereo not given)	6	-1.9%	-1%	0.0%	.	0.7	-5
CCNc1ncc2nc(-c3ccc(F)cc3)c(=O)n(-c3ccccc3)c2n1	.	.	3%	4.8%	-5.2	.	.
Cc1ccc(/C=C/C(=O)O)cc1S(=O)(=O)NCCCC(=O)O	6	4.1%	14%	-1.1%	1.1	-0.8	25
N/C(=N\OC(=O)c1ccc([N+](=O)[O-])cc1)c1ccccn1	-4	-3.2%	-10%	-2.3%	0.1	0.5	-12
COc1cc(/C=N/NC(=O)CN(Cc2ccco2)S(=O)(=O)c2ccccc2)ccc1O	0	-20%	11%	-1.5%	-0.2	0.2	5
O=C(CN1CCOCC1)Nc1cccc(C(F)(F)F)c1	-3	0.5%	.	3.1%	.	-0.3	.
CCOC(=O)N1CCC(NCCNC(=O)c2ccc(F)c(F)c2)CC1	0	1.7%	.	0.4%	.	-0.8	3
Cc1cccc(NC(=O)CSc2nnc(NC(=O)c3ccco3)s2)c1	-8	0.5%	4%	-1.0%	-1.2	0.5	13
c1csc(CSc2nnc3sc4ccccc4n23)c1	14	-1.0%	6%	-2.0%	5.4	2.5	13
COc1ccc(Nc2nc3ccccc3c(=O)s2)c(OC)c1	13	-1.2%	3%	-1.3%	-0.1	0.6	8
COc1ccc(CNC(=O)COC(=O)C2CCC(C(C)(C)C)CC2)cc1 (stereo not given)	24	-7.6%	-1%	0.1%	3.2	5.3	21
Cc1cccc(-c2nc3c4ccccc4n(CC(=O)Nc4cccc(F)c4)c(=O)n3n2)c1	-19	4.6%	.	5.8%	.	1.6	.
Cc1cccc(C(=O)Nc2nnc(-c3ccncc3)o2)c1	-19	-3.6%	15%	0.6%	-0.5	-0.7	13
Nc1nc(NCc2ccccc2)n(-c2ccccc2)n1	38	-0.8%	16%	0.0%	4.4	-0.9	15
O=C(COC(=O)c1ccc2c(c1)OCCO2)NC1CCCCC1	28	-3.4%	.	-0.3%	.	3.6	-1
COC(=O)c1cc2occc2n1Cc1nc(-c2cccc(Cl)c2)oc1C	-1&38	0.7%&-2.9%	-3%	1.2%&1.5%	2.6	-0.3&0.1	9
O=C(/C=C/c1ccc([N+](=O)[O-])cc1)Nc1cccc(S(=O)(=O)NC2=NCCCCC2)c1	-30	?	.	9.0%	.	2.3	.
COC(=O)c1cc(C)nc2c1C(=O)C(=O)C=C2N1CCOCC1	-9	.	-11%	-0.5%	-16	-0.3	23
CCNC(=O)COC(=O)C1CCC(=O)N(c2ccc(OC)cc2)C1c1ccc(OC)cc1 (stereo not given)	17	-1.8%	12%	-0.2%	2.5	0.1	2
CNC(=O)c1nn(C)c(=O)[nH]c1=O	28	.	.	5.8%	.	0.3	.
COC(=O)c1ccc(Cl)c(NC(=O)NC23CC4CC(CC(C4)C2)C3)c1	66	-1.9%	26%	5.6%	0.7	0.9	-2
CC(=O)Nc1ccc(NC(=O)C(C)OC(=O)c2cccc(S(=O)(=O)N3CCCC3)c2)cc1 (stereo not given)	0	1.3%	.	-1.6%	.	0.3	5
O=C(Nc1ccc(F)cc1)C1CCN(c2nc3ccccc3nc2C(F)(F)F)CC1	30	9.4%	.	3.4%	.	-0.4	.
COc1ccccc1C(=O)Nc1ccc(C(=O)OCc2cc(=O)n3ccsc3n2)cc1	6	-0.5%	.	9.0%	.	-0.8	.
Nc1cc2c(cc1Cl)-c1ccc(Cl)cc1C2	-6	-2.7%	.	3.1%	.	0.6	.
CCc1nc2c(OCc3ccc(Cl)cc3)cccn2c1N(C)C(=O)C1CC1	.	-3.6%	.	0.9%	.	-1.1	.
NC(=S)N/N=C/c1c[nH]c2ccccc12	12	-3.9%	79µM*	0.5%	0.6	-0.5	-14

Screening data (PubChem BioAssay)

No enrichment for hits. About 4.4% of those tested had a hit in this group.
